# Bioassay records: PubChem, several laboratories
# ugtP null kill: kills S. aureus RN4220 lacking UgtP. S. aureus RN4220 ugtP deletion, OD600 growth, 16 h; some inactives read as strong as hits. growth inhibition, % (test concentration not listed). hit rate 0.54% among 330,000;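 active = z-score under -3 and OD600 up to 0.15 on both plates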;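 also: plate controls were untreated wells for no effect and antibiotic for full effect; wells of about 80 µL received 100 nL stock; the first replicate is given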
# RN4220 kill: kills Staphylococcus aureus RN4220; S. aureus RN4220 growth, OD600, 16 h; inhibition, % (test concentration not listed); hit rate 0.33% among 330,000;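 active = z-score of -3 or lower and OD600 up to 0.18 on both plates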;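 also: plate controls were untreated cells for no effect and reference antibiotic for full effect; stock transfer was 100 nL into about 80 µL; one replicate is shown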
# BJeLR lethal: BJeLR cell viability loss | hit rate 0.17% among 300,000 | AID 1554 | BJeLR (HRASV12) viability, CellTiter-Glo ATP luminescence, 48 h; reference of the scale not given here | inhibition, % (test concentration not listed);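 active = replicate mean above 50%; inconclusive = above 50% but judged a plate artefact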;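 also: 50 nL library stock added to about 25 µL; numbers are from one replicate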
# Autofluor counter: flagged as autofluorescent in microsphere protease counterscreen. fluorescence intensity (concentration not given with the values). compound autofluorescence counterscreen, microsphere flow cytometry; stronger effect = higher value. hit rate 3.1% among 360,000;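 active = at least 3 SD above the mean of all compounds, about 16000 in these data; inconclusive = too few beads counted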;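 also: 100 nL of 1 mM stock went into each well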
# Mtb hypoxia rep: reduces hypoxia-regulated biosensor signal in M. tuberculosis. M. tuberculosis hypoxia-regulated fluorescent reporter, fluorescence. fluorescence inhibition, % (test concentration not listed). hit rate 0.1% among 300,000;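 active = 35 to 45% if threefold the growth effect, above 45% if 1.5-fold the growth effect; inactive = the rest, general growth blockers included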;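 also: wells of about 50 µL received 100 nL stock; 0% = vehicle wells and 100% = reference inhibitor wells; whole bacteria with a GFP reporter of the hypoxia response; strong numbers were not always called active; many hits fall short of the cut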
# PrP UTR inh: suppresses PrP 5' UTR mRNA reporter expression. cell-based PrP 5' UTR mRNA reporter, plate reader. inhibition, % (test concentration not listed). hit rate 0.35% among 340,000. AID 488862;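 active = every replicate at 50% or more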;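 also: 0 = median of the neutral control wells; tested in H4 reporter cells; numbers are from one replicate; inactives centre near -14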
# Mtb hypoxia rep growth: second read-out of Mtb hypoxia rep, no call of its own (marks repeat the call); growth inhibition, %; measured here: M. tuberculosis growth (absorbance);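 0% = vehicle and 100% = reference antibiotic; read after six days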
# * hit, by the source's call; u = inconclusive; x = not tested or not shown.
SMILES,ugtP null kill,RN4220 kill,BJeLR lethal,Autofluor counter,Mtb hypoxia rep,Mtb hypoxia rep growth,PrP UTR inh
CN(C)S(=O)(=O)c1ccc(N2CCCC2)c(C(=O)Nc2ccccc2)c1,4,1.6,-3,6034,-10,1,-23
O=C(NN=Cc1cc(Br)ccc1OC(=O)c1ccc(Br)cc1)c1ccncc1,-4,7.9,x,x,-4,-12,x
Nn1c(Cc2ccc(F)cc2)n[nH]c1=S,11,4.4,-4,3398,-9,2,1
CC(=NNC(=S)Nc1cc(S(=O)(=O)N2CCOCC2)ccc1Cl)c1ccccc1F,-16,17,x,x,4,0,x
Cc1onc(-c2ccccc2Cl)c1C(=O)NCc1ccc2c(c1)cc(C)n2C,-6,-15,9,2004,0,19,-13
COc1ccc(NC(=O)N2CCN(c3nc4ccccc4n3C(C)C)CC2)cc1,1,5.4,4,4121,1,-1,-15
CCS(=O)(=O)c1nc(S(=O)(=O)c2ccc(C)cc2)c(NCCCN(C)C)s1,3,1.0,-3,4287,5,5,-34
CC1OC(OCCC(=O)O)C(O)CC1O (stereo unspecified),-1,-0.5,x,x,7,4,x
CCOC(CNC(=O)Cn1nc(C)c2ccccc21)OCC,-11,0.9,-7,4376,-8,7,-16
CCc1ccc(-n2cnc3cc(C(=O)NCC(OC)OC)ccc32)cc1,2,3.2,-10,3876,12,6,-18
COC(=O)/C(C#N)=C/c1c(N2CCN(C)CC2)nc2ccccn2c1=O,12,7.9,2,3259,7,-2,-16
CN1C(=S)SC(C)(C)C1(C)NO (stereo unspecified),8,0.6,2,3263,1,1,-13
CC(C)(c1ccc(O)c([N+](=O)[O-])c1)c1ccc(O)c([N+](=O)[O-])c1,-3,6.5,x,4114,-6,14,1
CC(C)OC(=O)Cn1c(=O)oc2ccccc21,-1,-0.2,-1,3439,-75,-10,-5
CCN(CC)CCCNCC(=O)Nc1ccc2c(c1)CCC2,6,5.3,3,4608,2,7,-14
Cn1c(=O)oc2cc(S(=O)(=O)Nc3cccc(F)c3)ccc21,6,6.6,-1,4470,x,x,-8
Cc1nn(C)cc1C(C(=O)NC1CCCCC1)N(C(=O)Cc1cccs1)c1ccc(Cl)cc1 (stereo unspecified),3,4.8,16,2283,5,7,-3
CC(C)CNC(=S)N1CCC(C(=O)c2ccc3c(c2)OCCO3)CC1,6,0.6,2,3431,14,5,7
CN(CC(=O)NNC(=O)CNC(=O)c1ccccc1Cl)S(=O)(=O)c1ccc(Cl)cc1,0,-0.5,7,6292,-2,3,-19
Cc1ccc(S(=O)(=O)N2CCN(S(=O)(=O)c3ccccc3Br)CC2)cc1,-4,5.1,x,3616,-7,3,-14
COc1ccc(OCCOCCOc2ccc(C)cc2[N+](=O)[O-])cc1,7,5.2,5,2013,10,1,-3
O=C(Oc1cccc(N2C(=O)C3C4c5ccccc5C(c5ccccc54)C3C2=O)c1)c1ccco1 (stereo unspecified),8,8.6,-2,2454,8,-5,-11
Cc1ccc(NC(=S)N2CCCC(CO)C2)c(C)c1 (stereo unspecified),x,x,7,2057,x,x,-32
CCOC(=O)Nc1ccc2c(CN3C(=O)NC(CC)(CC)C3=O)cc(=O)oc2c1,-2,4.1,5,x,x,x,x
Cc1cc(NC(=O)c2c([N+](=O)[O-])cnn2C)no1,-1,2.4,-8,20559*,2,5,-3
CCCNc1c(NS(=O)(=O)c2ccc(C)c(C)c2)c(=O)oc2ccccc12,-8,-3.9,6,5403,-5,1,-2
O=C1CC(NC(=O)C(F)(F)F)=NN1c1ccccc1,5,4.3,3,4158,2,-3,-15
Cc1ccc(-c2nnc(SCC(=O)n3c4c(c5ccccc53)CCCC4)o2)cc1,6,0.7,3,x,x,x,x
Cc1ccc(S(=O)(=O)C(NC(=O)c2ccccc2)=C(Cl)Cl)cc1,0,5.0,10,3819,4,10,-26
CS(=O)(=O)N(CC(=O)Nc1ccccc1C(=O)N1CCOCC1)c1ccc(F)c(Cl)c1,10,3.1,5,5977,-1,-6,-5
CCc1ccc(NC(=O)CSc2nc3[nH]ncc3c(=O)[nH]2)cc1,4,5.8,-1,2140,4,-2,-13
O=C(Nc1ccccn1)C12CC3CC(CC(C3)C1)C2,-2,2.1,-10,9682,11,5,x
Cc1ccc(C)c(NC(=O)CCC(=O)NN=C2CC(=O)CC(C)(C)C2)c1,4,3.1,x,x,-6,-15,x
O=C(CCn1c(=S)oc2ccccc21)NCCC1=CCCCC1,11,3.1,0,5300,9,12,-17
CCOC(=O)c1cnc(SC)nc1NCCOC,-16,-3.2,3,4375,-3,12,-10
C=CCn1c(O)c(C(C)=Nc2cc(OC)ccc2OC)c(=O)[nH]c1=O,31,-0.1,4,3413,-11,-4,-8
NC(=O)c1ccc(OCC2CCCO2)cc1 (stereo unspecified),1,2.3,-12,4450,18,5,-10
COc1ccc(Nc2nc(N)c([N+](=O)[O-])c(NC3CCCCC3)n2)cc1,35,-10,1,4202,3,3,-1
CCCn1cc(S(=O)(=O)CC(=O)NC2CCCCC2)c2ccccc21,2,2.9,-4,7974,6,3,-7
COc1ccc(CC(=O)OCC(=O)N2CCCc3ccccc32)cc1OC,1,4.7,-5,u,-5,10,-1

# The closing 7 entries of the section above come first, to join the parts.
SMILES,ugtP null kill,RN4220 kill,BJeLR lethal,Autofluor counter,Mtb hypoxia rep,Mtb hypoxia rep growth,PrP UTR inh
O=C(CCn1c(=S)oc2ccccc21)NCCC1=CCCCC1,11,3.1,0,5300,9,12,-17
CCOC(=O)c1cnc(SC)nc1NCCOC,-16,-3.2,3,4375,-3,12,-10
C=CCn1c(O)c(C(C)=Nc2cc(OC)ccc2OC)c(=O)[nH]c1=O,31,-0.1,4,3413,-11,-4,-8
NC(=O)c1ccc(OCC2CCCO2)cc1 (stereo unspecified),1,2.3,-12,4450,18,5,-10
COc1ccc(Nc2nc(N)c([N+](=O)[O-])c(NC3CCCCC3)n2)cc1,35,-10,1,4202,3,3,-1
CCCn1cc(S(=O)(=O)CC(=O)NC2CCCCC2)c2ccccc21,2,2.9,-4,7974,6,3,-7
COc1ccc(CC(=O)OCC(=O)N2CCCc3ccccc32)cc1OC,1,4.7,-5,u,-5,10,-1
COc1ccc(C2=CSC3=NCCN23)cc1Br,3,1.3,7,5796,1,-3,x
Cc1cc(C)n2nc(C(=O)OCCOc3ccc(F)cc3)nc2n1,6,9.7,3,5145,x,x,2
CCCC1C2C(=O)N(c3ccccc3)C(=O)C2ON1c1ccccc1 (stereo unspecified),6,3.5,-4,9147,10,10,-13
CCC(C)C1COCCS(=O)(=O)N1Cc1ccccc1F (stereo unspecified),-1,4.5,x,x,-1,10,x
COc1ccc(S(=O)(=O)N2CCOC23CCN(S(=O)(=O)c2ccc(Cl)cc2)CC3)cc1,0,3.6,-3,u,3,0,-16
COC(=O)c1ccc(NC(=O)CSc2nnc(COc3ccc4c(c3)CCCC4)o2)cc1,7,0.3,-6,8681,20,10,-16
CCOc1cc(C(=O)Nc2ncccn2)cc(OCC)c1OCC,3,2.6,8,3641,13,5,-4
CCOc1cc(OCC)nc(S(C)(=O)=O)n1,5,2.3,-8,2418,8,11,-14
CC1CN(Cc2nc3c(c(=O)n(C)c(=O)n3C)n2Cc2cccc(Cl)c2)CC(C)O1 (stereo unspecified),8,8.3,7,5842,5,1,-7
Cc1ccc(NC2SC(=O)N(Cc3cccc(C(=O)O)c3)C2=O)cc1 (stereo unspecified),9,2.3,3,3236,x,x,-3
Cc1ccc(-c2nnn3c2nc(Cl)c2ccccc23)cc1,x,x,-3,4204,x,x,-9
COc1ccc(-n2nc(C(=O)NCC(=O)NCc3ccco3)c3ccccc3c2=O)cc1Cl,-6,2.3,-4,21931*,4,15,-30
O=C(CSc1nnc(-c2ccc(OC(F)F)cc2)o1)NCc1cccs1,0,3.3,-5,2728,x,x,-5
COC(=O)c1ccccc1NC(=O)c1cnn2c(C)cc(C)nc12,0,-0.5,-5,2054,-3,-5,1
COc1ccc(C2CC3(CC(C)(C)NC(=O)N3)Oc3cc(O)ccc32)cc1 (stereo unspecified),-7,1.4,10,9577,17,5,4
COc1ccc(-c2nnc(SCC(=O)O)n2C)cc1OC,x,x,-2,4394,x,x,14
Cc1cc(C(=O)NNC(=O)C(CCC(N)=O)NS(=O)(=O)c2ccc(Cl)cc2)c(C)o1 (stereo unspecified),-5,6.4,x,3283,5,2,-11
CCN(CC)c1ccc(NC(=O)/C=C\c2ccccc2Cl)cc1,-20,-3.2,1,6072,-3,-6,-21
COc1ccc(CC(=O)N(C)Cc2ccc(Cl)cc2)cc1S(=O)(=O)N1CCOCC1,1,0.7,4,u,5,1,6
Cc1nc(-c2ccc(C(F)(F)F)cc2)sc1C(=O)NN,14,57,-7,3631,-5,10,15
Cc1ccc(NC(=O)N2CCC(O)(c3cccnc3)CC2)cc1,-2,3.4,-1,2875,9,7,-20
CC1C(=O)N2CCCc3cc(NS(=O)(=O)c4ccccc4)cc1c32 (stereo unspecified),0,4.0,10,x,6,0,-17
CSc1ccc(C2(O)Cc3cccc[n+]3C2c2ccccc2)cc1 (stereo unspecified),-6,2.2,4,4129,-1,-2,-23
Cc1cc(NC(=O)CN2C(=O)N(C)C3(CCCCC3)C2=O)ccc1Br,4,-0.3,x,3009,5,-12,-7
O=C(NCc1ccccc1)[C@@H]1CSC2c3ccccc3C(=O)N21 (stereo partly specified),9,3.1,1,11831,11,11,-22
Cc1nc(NN=Cc2cccc(F)c2)cc(N2CCOCC2)n1,-3,-1.0,x,x,8,8,x
Cn1c(O)c(C=NC2CC(C)(C)NC(C)(C)C2)c(=O)n(C)c1=O,17,6.1,5,7258,5,-10,-16
COc1cc(/C=C/C(=O)c2ccc(O)cc2)ccc1OCC#N,-4,4.8,-5,2047,10,7,-32
CCCNC(=O)C(Cc1ccccc1F)NC(=O)c1ccc(C#N)cc1 (stereo unspecified),4,2.6,x,4042,15,11,-15
O=C(Cc1nnc(NC(=O)Nc2ccc(F)cc2)s1)NCc1ccccc1,4,2.5,3,6061,2,-3,x
Cc1ccc(S(=O)(=O)c2c(N)n(Cc3ccco3)c3nc4ccccc4nc23)cc1,-12,-7.8,-5,8883,0,0,-3
CCN(CC(=O)NC(=O)NCc1ccccc1)CC(=O)Nc1cc(Cl)ccc1C,-10,-0.1,x,3746,17,11,-10
CC[C@]12c3[nH]c4cc(CCC(=O)N(C)C)ccc4c3CCN1C(=O)[C@@H](CC(=O)NCCC1=CCCCC1)C[C@@H]2C(=O)N1CCN(C(=O)c2ccco2)CC1,0,0.1,x,3550,5,9,-18
CC(C)=CCC/C(C)=C/C=N/NC(=O)c1cccc([N+](=O)[O-])c1,x,x,-5,2653,x,x,-22
Cc1nc(-c2ccncc2)sc1C(=O)Nc1ccc(Cl)cc1,-7,2.2,-6,3510,-6,10,-24
CC1CC(C)CN(C(=O)CCCn2c(=S)[nH]c3ccccc3c2=O)C1 (stereo unspecified),-9,-1.5,-3,5769,-2,2,-11
CCC(C(=O)NCC1CCCO1)N(C(=O)c1snc(C(N)=O)c1N)c1ccc(Cl)cc1 (stereo unspecified),2,3.9,6,3993,16,8,-26
COC(=O)C1=C(C)N(Cc2ccccc2)C(=O)NC1c1ccco1 (stereo unspecified),-4,0.4,x,x,-1,12,x
Cc1ccc(NC(=O)C(c2ccccc2)c2ccccc2)c(O)c1,0,-8.0,-5,5519,-8,1,-8
N#Cc1ccsc1NC(=O)CN1CCN(Cc2ccccc2)CC1,12,7.2,5,5015,10,6,-20
Nc1ccn(CC(=O)NCCCc2ccccc2)c(=O)n1,3,7.5,x,3964,16,5,-6
Cc1nn(CC(=O)Nc2ccc(Br)cc2F)c(=O)c2cccn12,1,2.7,1,6902,2,1,-5
Cc1cccc(C(=O)N2CC3(C)CC2CC(C)(C)C3)c1 (stereo unspecified),2,7.8,-12,2482,13,7,-16
CCCc1nnc(SCC(=O)O)n1N=Cc1ccc2c(c1)OCO2,-2,0.4,x,x,-3,-2,x
